Screens (PubChem)
Menin-MLL FL inh: displaces fluorescein MLL peptide from human menin | Fluorescence polarization, fluorescein-MLL peptide displacement from menin | FP activity change, % at 61.4 µM | 290,000 tested, under 10 active | AID 1766; inconclusive = falling polarisation curve, or a change in total fluorescence; inactive = total fluorescence flat and polarisation flat or rising; no compound was filed as active; the % refers to the polarisation; negative = inhibition;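 note: % of control where 0% means no effect; inhibitors lower the polarisation; unlabelled MLL peptide was the positive control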
gsp agonist: activates gsp, the McCune-Albright syndrome mutation | hit rate 0.13% among 340,000 | Potency, µM (highest dose often 76.9 µM), for the others: top-dose activation (cAMP increase), actives largely listed as activators | gsp mutant cells, cAMP HTRF, 30 min; control for the full effect not named in the record; active = well fitted activation curve with a large enough effect; inconclusive = small, poorly fitted or top-dose-only effect, or another doubt; inactive = no such curve, though single readings can be large or run the other way; cell line not stated here;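 note: phosphodiesterase inhibitor Ro 20-1724 added with compounds to block cAMP breakdown; potency is the fitted concentration of half-maximal effect; nearly all actives have a fitted effect of over 60% in size; about a fifth of the inactives were tested at one dose only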
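Cells stably selected in G418 were plated at 2000/well, grown 16-24 hr, then given compounds in DMSO with the PDE inhibitor […] (300 uM solution added) for 30 min at 37C; cAMP was read by HTRF.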
TRPV1 potentiator: enhances activation of the human vanilloid receptor TRPV1; TRPV1-expressing cells, Fluo-8 calcium influx, capsaicin EC20 potentiation; host cell line not named in the record; control for the full effect not named in the record; potentiation, % at 8.33 µM; hit rate 0.02% among 320,000; AID 540277; active means potentiation above 80%; inconclusive means 30% to 80%; inactive means below 30%; note: 0% is about no effect
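Fluo-8 calcium influx in TRPV1-expressing cells, kinetic read (ex 480/em 520 nm). Compound added and read 3 min for agonist activity, followed by capsaicin at EC20 final and 2 min further read for enhancement.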
gsp antag: antagonists of gsp mutant (McCune-Albright syndrome); gsp-mutant cells, cAMP HTRF, 30 min; control for the full effect not named in the record; Potency, µM (titrated, usually from 76.9 µM), inactives show top-dose activity change, negative = inhibition, most hits filed as inhibitors; hit rate 0.4% among 340,000; AID 624288; active = falling curve of any shape with a large fitted effect; inconclusive = falling curve, mostly with a smaller effect; inactive = flat or rising curve; cell line not stated here;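 note: intracellular cAMP measured with PDE inhibitor Ro 20-1724 present during compound exposure; potency is the fitted concentration of half-maximal effect; % is set by controls: 0 for no effect and ±100 for the full control effect; nearly all actives have a fitted effect of over 65% in size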
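HTRF cAMP measurement after 30 min RT detection following 30 min, 37C compound treatment alongside […] (added as 300 uM solution) in G418-selected cells seeded at 2000/well and grown 16–24 h.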
Sfp inh: inhibitors of Bacillus subtilis Sfp phosphopantetheinyl transferase; Q9F4F7; Biochemical Sfp PPTase activity, qHTS; Potency, µM, without a hit: max response, negative = inhibition, hits mostly inhibitors; hit rate 3.5% among 310,000; AID 1490; active = well fitted inhibition curve with a large enough effect; inconclusive = small, poorly fitted or top-dose-only effect, or another doubt; inactive = no such curve, though single readings can be large or run the other way;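 note: the enzyme is Sfp with the accession as filed and its product quenches rhodamine fluorescence; potency is the fitted concentration of half-maximal effect; 0% = enzyme reaction without inhibitor and -100% = no enzyme wells; top concentration of the series not given in the record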
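Reaction rates are the 30-min fluorescence difference (ex 525, em 598 nm) in wells containing 15 nM Sfp, 5 uM rhodamine-CoA and 12.5 uM BHQ-2-YbbR at pH 7.6 with 10 mM MgCl2.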
TRPML1 blocker: human mucolipin-1 channel inhibition. Q9GZU1. TRPML1-inducible cells, Ca2+ dye fluorescence, FDSS; active compounds read low; inhibition of EC80 agonist-evoked calcium signal. activity change, negative = inhibition, % (no concentration beside the values). hit rate 0.02% among 390,000. AID 624415; in the data active means activity change below about -50%; inconclusive means about -30% to -50%; inactive means above about -30%;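 note: stimulus is agonist 54-4 at its EC80 concentration; % is set by controls: 0 for no effect and ±100 for the full control effect; compound concentration not given in the record; the text of the record puts the active cut at -80%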
Target sequence (Q9GZU1 whole entry, looked up): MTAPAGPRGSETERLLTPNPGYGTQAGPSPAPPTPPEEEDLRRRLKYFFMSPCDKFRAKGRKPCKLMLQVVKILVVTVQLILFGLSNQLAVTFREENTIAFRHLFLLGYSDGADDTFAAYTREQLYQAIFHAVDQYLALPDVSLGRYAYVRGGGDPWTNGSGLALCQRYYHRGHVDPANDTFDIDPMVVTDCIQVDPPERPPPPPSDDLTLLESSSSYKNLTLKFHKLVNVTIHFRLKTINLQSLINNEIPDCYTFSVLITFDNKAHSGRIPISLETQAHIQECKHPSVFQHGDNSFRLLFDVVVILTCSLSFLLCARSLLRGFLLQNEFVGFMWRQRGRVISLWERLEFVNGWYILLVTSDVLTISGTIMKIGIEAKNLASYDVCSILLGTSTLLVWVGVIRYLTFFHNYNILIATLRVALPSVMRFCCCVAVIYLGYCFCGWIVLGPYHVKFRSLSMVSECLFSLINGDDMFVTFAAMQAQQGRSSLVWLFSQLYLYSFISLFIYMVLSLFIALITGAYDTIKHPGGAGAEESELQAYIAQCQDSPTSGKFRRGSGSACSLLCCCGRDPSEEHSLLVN
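Calcium fluorescence in TRPML1-DL cells induced overnight with Tet: a 110 s read after compound pin addition, then a 110 s antagonist read after challenge with 54-4 at 4 uM final (EC80).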
ClpP mod: qHTS Assay for Activators of ClpP; ATP-dependent Clp protease proteolytic subunit (Bacillus subtilis (strain 168)), P80244; AID 651965, 2013; hit rate 1.9% among 340,000; purified B. subtilis ClpP, FRET peptide cleavage, 20 min; Potency, µM (highest dose often 57.5 µM), without a hit: top-dose activity change, negative = active; active = well fitted falling curve with a large enough effect; inconclusive = small, poorly fitted or top-dose-only effect; inactive = no such curve, though single readings can be large or run the other way; note: potency is the fitted concentration of half-maximal effect; the source files actives as falling curves though it sought activators and does not explain the sign; nearly all actives have a fitted effect of over 65% in size; many hits overshoot -100%
Target sequence (P80244 whole entry, looked up): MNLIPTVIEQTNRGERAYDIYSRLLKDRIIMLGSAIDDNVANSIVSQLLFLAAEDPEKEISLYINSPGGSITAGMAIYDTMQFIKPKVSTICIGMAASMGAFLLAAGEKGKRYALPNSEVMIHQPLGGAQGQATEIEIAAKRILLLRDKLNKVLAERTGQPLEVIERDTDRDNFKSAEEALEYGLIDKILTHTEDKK
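Buffer: 100 mM Tris/HCl pH8, 100 mM KCl, 0.05% low protease BSA, 2.5% glycerol, 0.01% Tween-20. ClpP 10 microg/mL final; 20 min RT; delta FRET normalized to ADEP and DMSO controls.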
An asterisk follows results filed as active; ? = inconclusive; nt = no result given; [ ] = dose if it differs, or a comment.

SMILES	Menin-MLL FL inh	gsp agonist	TRPV1 potentiator	gsp antag	Sfp inh	TRPML1 blocker	ClpP mod
CC1(C)CC(=O)c2sc(NC(=O)Cc3cccs3)nc2C1	-0.9	-2%	2	4%	2%	-11	-10%
COc1cccc(CC(=O)Nc2ccc(S(=O)(=O)N3CCCCC3)cc2)c1	nt	?	nt	-7%	nt	19	nt
Cc1cnc(C(=O)OCC(=O)N2C(C)CCCC2C)cn1 (centres undefined)	nt	19%	nt	0%	nt	11	0.4%
CCN1C[C@@H]2[C@@H]3C(=O)N(Cc4ccccc4)C(=O)[C@@H]3[C@](C)(C1=O)N2C(=O)c1ccc(C(F)(F)F)cc1	nt	-73%	nt	13%	nt	-1	-0.3%
O=C(/C=C/c1ccc(OCc2ccccc2)c(OCc2ccccc2)c1)c1cccnc1	9.3	-17%	10	-3%	-4%	-13	-5.2%
COc1ccc2[nH]c(C(=O)N(Cc3ccccn3)Cc3ccccn3)cc2c1	1.7	19%	20	-9%	11%	0	?
Cc1onc(-c2ccccc2Cl)c1C(=O)O/N=C(\N)c1cccc([N+](=O)[O-])c1	nt	-177%[inhibitor]	nt	nt	nt	5	-0.5%
COC(=O)c1oc2ccc(Br)cc2c1NC(C)=O	0.7	?	11	2%	17%	-11	-3.3%
C=CCNC(=O)NC(=O)COn1nnc2ccc(S(=O)(=O)N(C)C)cc21	-1.5	2%	18	-8%	8%	-19	0.7%
Cc1cccc(NC(=O)CCc2ccccc2)c1	-1.9	3%[15.4 µM]	-15	17%	-19%	2	1.9%
CCC(=O)Nc1ccc(NC(=O)c2cccc3ccccc23)cc1	-0.2	-12%[15.4 µM]	14	2%	18%	-3	4.7%
O=C(NCCNC(=O)c1ccc(Br)o1)c1ccc(Br)o1	3.8	28%	-9	6%	2%	14	-1.6%
O=S(=O)(c1ccc2oc(=S)[nH]c2c1)N1CCOCC1	nt	-7%	3	-7%	nt	-8	-3.9%
Cc1ccc(OCC(=O)NC2CC(C)(C)NC(C)(C)C2)c(C)c1	9.9	?	10	2%	-16%	-4	-1.1%
COc1ccccc1NC(=O)C1=C(C)Nc2nc(-c3ccc(N(C)C)cc3)nn2C1c1ccncc1 (centres undefined)	1.0	15%	-7	-3%	14%	3	-0.8%
COc1ccccc1C(=O)NCCOc1ccc(C)c(C)c1	-7.4	-7%	?	2%	20%	-1	-1.6%
Cc1ccc(C)c(S(=O)(=O)N2CCN(CC(=O)NC(=O)NCc3ccccc3)CC2)c1	-0.2	15%	-10	-8%	0%	-6	-3.2%
O=C1C2CC=C(Cl)CC2C(=O)N1CCC[n+]1ccccc1 (centres undefined)	1.0	-1%	-7	-2%	12%	-1	0.7%
CC(C)c1ccc(N=C(N)N=C(N)N)cc1	-1.0	9%[15.4 µM]	-1	nt	16%	46	nt
Cc1[nH]c2ccc(C(=O)N3CCCCC3)cc2c1C	2.3	7%[15.4 µM]	3	11%	8%	-8	-0.7%
O=C(NCCc1ccc(Cl)cc1)c1cccs1	-1.8	15%[15.4 µM]	-13	10%	5%	-13	nt
CCn1cc(C(=O)NCCCN2CCC(C)CC2)c(=O)c2cc(S(=O)(=O)N3CCCC3)ccc21	3.6	4%	-7	1%	4%	2	-0.8%
Cc1ccc(NC(=O)c2cnc(SCC(=O)NCC3CCCO3)n(C)c2=O)cc1 (centres undefined)	nt	7%	7	-20%	nt	8	-0.5%
COc1ccc(C(=O)c2ccc3oc(-c4ccc(OC)cc4)c(-c4ccc(O)cc4)c3c2)cc1	nt	nt	nt	3%	nt	-4	-2.3%
CCC1CC(/C(C)=N/NC(N)=O)OC1=O (centres undefined)	2.1	26%	1	11%	20%	5	nt

(cont.)
SMILES	Menin-MLL FL inh	gsp agonist	TRPV1 potentiator	gsp antag	Sfp inh	TRPML1 blocker	ClpP mod
COc1cc(C2NC(=O)NC(O)(C(F)(F)F)C2C(=O)c2cccs2)ccc1O (centres undefined)	-0.6	2%	5	-3%	9%	2	-3.6%
CC(=O)Nc1ccc(C2=CC(=O)C[C@H](c3ccc4c(c3)OCO4)C2)cc1	nt	nt	-13	-7%	nt	-8	-3.3%
COc1ccc(OC)c(NC(=O)COc2ccc(S(=O)(=O)N3CCCC3)cc2)c1	-2.0	-9%[15.4 µM]	1	-15%	4%	-24	nt
CC(C)(C)C(=O)O/N=C(\N)c1c(Cl)cccc1Cl	5.8	11%[15.4 µM]	-6	0%	2%	-22	nt
CCc1nc(Nc2cccc(F)c2)c2oc3ccccc3c2n1	1.2	?	12	-7%	1%	-14	nt
COC(=O)c1ccc(C(=O)Nc2ccc(C(C)C)cc2N)cc1	-5.3	1%[15.4 µM]	-5	nt	24%	4	nt
O=C(COC(=O)c1cccnc1Cl)Nc1cc(S(=O)(=O)N2CCOCC2)ccc1Cl	nt	1%	29	-2%	nt	-17	-0.2%
Cc1ccc(NC(=O)NC2CCCCC2)cc1S(=O)(=O)N1CCOCC1	-0.5	-2%[15.4 µM]	-7	-4%	10%	2	-1.0%
CCN(CC)c1ccc(NC(=O)CN2C(=O)NC3(CCc4ccccc43)C2=O)cc1 (centres undefined)	nt	-3%	-6	-1%	nt	1	-0.6%
COc1ccc(C(=O)NCCCOC(C)C)cc1OC1CCN(C(C)=O)CC1	-7.7	-6%[15.4 µM]	3	-3%	19%	-4	-2.2%
Cc1ccc(S(=O)(=O)N(C)c2ccc(OCC(=O)Nc3cc(C(=O)O)ccc3Cl)cc2)cc1	nt	-12%	nt	?	nt	-2	2.2%
CCCCC1=CC2=C(c3ccco3)C(=O)C(C)(OC(=O)c3ccc(OC)cc3)C(=O)C2=CN1c1ccccc1 (centres undefined)	?	?	20	7%	-25%	-2	-2.9%
COCCCn1c(C)nnc1SCC(=O)NCc1ccco1	-0.8	2%	18	4%	8%	-9	0.0%
CC1=C(C(=O)N2CCOCC2)C(c2ccc(Cl)cc2)NC(=S)N1 (centres undefined)	0.6	13%	-2	-23%	-7%	12	0.6%
S=C(Nc1ccc(Oc2ccccc2)cc1)NC1CCCCC1	0.5	-48%[inhibitor]	-11	-36%	-5%	22	-1.2%
CCOc1ccccc1NC(=O)COc1cccnc1[N+](=O)[O-]	nt	-13%	nt	-5%	nt	3	nt
FC(F)(F)c1nnc2n1N=C(c1ccccc1)CS2	3.0	20%	12	-4%	14%	8	0.0%
Cc1ccc(NC(=O)C2=COCCO2)cc1S(=O)(=O)N1CCOCC1	nt	-6%	-7	2%	nt	5	-0.5%
Cc1nn(-c2ccccc2)c(C)c1NC(=O)c1cccs1	0.3	-24%	-40	-6%	-4%	8	1.1%
Cc1cc(Nc2ccc(F)c(F)c2)nc(-c2ccccc2O)n1	0.0	5%	-11	-2%	22%	nt	-0.6%
CC1=C(C#N)C(=O)NC(=O)/C1=C\c1ccc(-c2ccc(C)cc2[N+](=O)[O-])o1	-0.6	4%[15.4 µM]	4	-15%	50µM*	-4	nt
CCOCCCNC(=O)c1ccc2c(=O)n(Cc3ccc4c(c3)OCO4)c(=S)[nH]c2c1	4.5	3%[15.4 µM]	6	-1%	18%	3	-11%
O=C(OCc1nnc(-c2ccccc2)o1)c1ccc(Br)o1	nt	-3%[15.4 µM]	-16	2%	nt	-2	nt
Cn1ncc([N+](=O)[O-])c1C(=O)Nc1cccc(Cl)c1	-4.0	-40%[inhibitor]	16	0%	-1%	nt	1.0%
COc1cccc(Cn2c(=O)ccc3ccccc32)c1	-0.9	-2%	7	-11%	-14%	-13	-3.7%

Next compounds
SMILES	Menin-MLL FL inh	gsp agonist	TRPV1 potentiator	gsp antag	Sfp inh	TRPML1 blocker	ClpP mod
Cc1sc2nc(SCC(=O)Nc3ccccc3F)[nH]c(=O)c2c1C	nt	?	3	-9%	-20%	10	nt
CN1CCN(CC(=O)Nc2nc(-c3c[nH]c4ccccc34)cs2)CC1	-4.2	15%[15.4 µM]	-9	8%	-24%	-1	-0.4%
CC(=O)c1cccc(NC(=O)NCc2ccco2)c1	2.3	-43%[inhibitor]	-27	8%	-3%	14	-1.3%
Cc1ccc(N=Nc2c(N)nn3c(N)c(C#N)c(C)nc23)cc1	-3.7	-26%	1	-8%	-5%	-6	-0.2%
CCn1c(-c2cc(Br)cc(OC)c2O)nc2cc(S(=O)(=O)N(C)C)ccc21	-0.6	-48%	12	?	-9%	18	-0.6%
COc1ccc(Cl)cc1S(=O)(=O)N(C)CC(=O)N1CCOCC1	1.7	?	1	11%	19%	-17	nt
Cn1c(-c2ccc(F)c(F)c2)cc2onc(-c3ccccc3)c2c1=O	nt	5%	-20	-21%	nt	-8	?
S=C(c1ccc(Br)cc1)N1CCCC1	2.1	4%[15.4 µM]	-8	11%	-11%	8	25µM*
Cc1ccccc1CSCC(=O)Nc1ccccc1-c1ccccc1	1.7	22%	-4	-22%	-3%	78	0.2%
O=C(c1nnsc1S(=O)(=O)c1ccc(Cl)cc1)N1CCOCC1	-0.9	1%[15.4 µM]	3	2%	16%	-7	nt
COc1ccccc1-c1noc(-c2cc(OC)c(OC)c(OC)c2)n1	3.8	21%	-5	16%	-16%	3	-10%
COc1ccc([N+](=O)[O-])cc1NC(=O)COC(=O)C12CC3CC(CC(O)(C3)C1)C2	nt	-18%	nt	nt	nt	5	-2.0%
COc1ccccc1CNC(=O)CSc1nc(-c2ccccc2)cn1N	5.0	-9%	-16	-9%	-14%	-5	-2.0%
Cc1ncc([N+](=O)[O-])n1CC(=O)NC1CCCCCC1	-1.1	-2%[15.4 µM]	5	nt	23%	9	nt
CC(C)C(=O)NC(c1ccc([N+](=O)[O-])cc1)c1c(O)ccc2ccccc12 (centres undefined)	-0.2	-45%[inhibitor]	7	?	5%	-10	2.0%
O=C(/C=C/c1ccc[nH]1)c1ccccc1	17	19%[15.4 µM]	-18	nt	56µM*	17	nt
COc1cccc(C(=S)N2CCOCC2)c1OS(=O)(=O)c1ccc(Cl)cc1	nt	?	-12	-5%	-27%	-12	1.0%
CC(=O)Nc1ccc(-c2ccc(NC(C)=O)cc2)cc1	-2.6	11%[15.4 µM]	-2	4%	19%	-25	nt
Cc1cc(S(=O)(=O)NC[C@H]2O[C@@H](n3ccc(N)nc3=O)[C@H](O)[C@@H]2O)c(C)s1	nt	-35%[inhibitor]	nt	nt	nt	7	-1.7%
O=C(Nc1ncccc1O)c1cccc(S(=O)(=O)NCc2ccccc2)c1	nt	3%	-21	2%	nt	-5	-2.8%
O=C(Nc1ccccn1)C1CCCN1S(=O)(=O)c1ccc(Cl)cc1 (centres undefined)	nt	-5%[15.4 µM]	2	9%	13%	11	-1.9%
